Screening results deposited in PubChem BioAssay by ICCB-Longwood Screening Facility, Harvard Medical School.
RVFV N-RNA FP – blocks Rift Valley Fever Virus nucleoprotein binding to RNA; AID 651828; % bound, % (concentration not given with the values); RVFV N-RNA binding, fluorescence polarization; stronger effect = lower value; 20,000 tested, 0.1% active; P21700;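 active = between 0 and 58% in either replicate with normal brightness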;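 note: 100 nL library stock added to about 12 µL; 100% = protein and probe without compound and 0% = probe alone; numbers are from one replicate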
Target sequence (P21700 whole entry, looked up): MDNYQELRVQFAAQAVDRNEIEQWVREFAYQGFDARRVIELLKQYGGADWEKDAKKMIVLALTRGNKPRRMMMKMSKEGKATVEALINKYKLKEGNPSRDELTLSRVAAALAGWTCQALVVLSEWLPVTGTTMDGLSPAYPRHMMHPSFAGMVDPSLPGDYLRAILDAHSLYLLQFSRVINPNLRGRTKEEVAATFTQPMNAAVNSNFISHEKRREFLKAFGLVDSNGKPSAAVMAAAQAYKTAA
Active calls of the source: *; & = joins results of further samples. An excerpt; the hit share may differ from the screen's.

SMILES	RVFV N-RNA FP
CCCc1cc2ccccc2o1	103.8
CCC(=O)N(C)C1CCS(=O)(=O)C1 (configuration not stated)	98.0
O=C(COc1ccccc1)NCc1ccccc1	99.9
C=CCn1ccc2c(OCC(=O)c3ccccc3)cccc2c1=O	98.0
COC(=O)c1ccc(CSc2nnc(COc3ccccc3)o2)o1	97.3
Cc1ccc2cc(CCNC(=O)c3ccc(S(=O)(=O)N4CCOCC4)cc3)c(=O)[nH]c2c1C	97.8
COc1cc(N)c(Cl)cc1C(=O)OCCN1CCCCC1	94.9
CCCN1CCN(CCCNC(=S)Nc2ccc(F)cc2)CC1	103.2
Nc1ccc(C(=O)N/N=C/c2ccccc2)cc1	97.9
C/C(=N\NC(N)=S)c1ccc(O)cc1	100.0
CN1CCN(C(CNC(=O)c2ccco2)c2ccc3c(c2)OCO3)CC1 (configuration not stated)	98.6
Cc1ccc(S(=O)(=O)NCc2nc3ccccc3c(=O)n2N)cc1	96.0
CNC(=O)c1ccc(NC(=O)Nc2ccccc2)cc1	98.0
C[C@](Cc1ccc(O)c(O)c1)(NN)C(=O)O	93.9
CC1C(=O)CCC1(C(=O)Nc1ccccc1)c1ccccc1 (configuration not stated)	100.1
CCOc1ccc(-c2cnc3ccccc3n2)cc1	104.9
CCOCCn1ccc2c(OCC(=O)NC(C)(C)C)cccc2c1=O	101.4
N#Cc1ccccc1NC(=O)C1=COCCO1	100.6
COc1ccc(N2CC(NC(=O)N3CC(C)OC(C)C3)CC2=O)cc1 (configuration not stated)	98.0
O=C(NCc1ccco1)c1cc2cc(Br)ccc2oc1=O	92.7

An excerpt from the list above:
SMILES	RVFV N-RNA FP
CCCc1cc2ccccc2o1	103.8
CCC(=O)N(C)C1CCS(=O)(=O)C1 (configuration not stated)	98.0
O=C(COc1ccccc1)NCc1ccccc1	99.9
C=CCn1ccc2c(OCC(=O)c3ccccc3)cccc2c1=O	98.0
COC(=O)c1ccc(CSc2nnc(COc3ccccc3)o2)o1	97.3
Cc1ccc2cc(CCNC(=O)c3ccc(S(=O)(=O)N4CCOCC4)cc3)c(=O)[nH]c2c1C	97.8

Following part.
SMILES	RVFV N-RNA FP
COc1ccc(S(=O)(=O)c2c(N)n(CC3CCCO3)c3nc4ccccc4nc23)cc1 (configuration not stated)	92.2
COCCCNC1CC2CCC1C2 (configuration not stated)	109.3
NC(=O)COc1ccc(Br)cc1	90.1
O=c1[nH]c2ccc(Cl)cc2c(-c2ccccc2)c1N1CCN(c2ccccn2)CC1	90.5
COc1ccc(/C=N/N2C(=O)c3ccccc3C2=O)cc1OC	89.8
O=S(=O)(NCCSc1nnc(-c2ccco2)n1-c1ccccc1)c1ccccc1	108.3
CC1=C(C#N)C(c2ccc(CN3C(=O)c4ccccc4C3=O)o2)C2=C(CCCC2=O)N1 (configuration not stated)	99.4
CC1=CC(C)(C)Nc2ccccc21	88.3
CC(C)(C)N1C(=O)c2ccc(-c3nc4ccccc4o3)cc2C1=O	93.3
CC1=C(C#N)C(C)(C)C(C#N)=C(C)N1	88.8
Cn1c(=O)c2[nH]c(-c3ccccc3)nc2n(C)c1=O	93.3
O=c1oc2cc(O)ccc2c2c1CCC2	94.1
Cc1cccc(C)c1OCC(=O)Nc1c(C)nn(C)c1C	93.6
O=C1C=CC(=CN(O)c2ccccc2)C=C1	89.3
CCCC(CCC)C(=O)Nc1cccc(-c2cn3c(n2)SCC3)c1	86.4
CC1(C)CN=C(NCCNC2=NCC(C)(C)S2)S1	96.3
OC(c1ccccc1)C(F)(F)C1(F)OC(F)(F)C(F)(F)C1(F)F (configuration not stated)	87.8
O=C(NCC1CCCCC1)c1ccc(Br)o1	100.6
CCc1c(C)c2ccc(OCC(=O)C(C)(C)C)c(C)c2oc1=O	98.4
CCOC(=O)N1CCC(NC2CCCCCC2)CC1	99.6
O=C(Nc1cccc(C(F)(F)F)c1)c1ccc2nc[nH]c2c1	93.2
Cc1[nH]c(=O)c(C#N)cc1-c1ccc2nccn2c1	102.1
OC1CSc2nc3ccccc3n21 (configuration not stated)	86.8
Cc1ccc(S(=O)(=O)N[C@@H](CCCCN)C(=O)CCl)cc1	101.1
O=c1[nH]c(O)c(/C=C/N=Nc2ccccc2)c(=O)[nH]1	97.3
CCCNC(=O)COc1ccccc1OC	93.6
CCCN1C(=O)C2CC(C)=C(C)CC2C1=O (configuration not stated)	102.3
CCC(C)c1ccc(NC(=O)N(C)C)cc1 (configuration not stated)	96.1
Cn1c(CN2CCCCC2)nc2ccccc21	96.1
Cc1ccccc1C(NC(N)=O)c1ccccc1 (configuration not stated)	98.8
O=C(OCCN1CCOCC1)C1(c2ccccc2)CCCCC1	93.3
Oc1ccc(C=NC2CCCCC2)cc1	106.6
N#C/C(=C/c1ccc(-c2cccc(C(F)(F)F)c2)o1)c1ccc(C(=O)O)cc1	89.8
O=C1NC(c2cccs2)Nc2sc3c(c21)CCCC3 (configuration not stated)	107.6
CCOC(=O)c1cc(-c2ccc(Cl)s2)[nH]n1	81.3
Cc1occc(=O)c1OCc1ccc(Cl)cc1	91.7
CN(C)S(=O)(=O)N1CCC(c2nc3ccccc3[nH]2)CC1	95.4
O=C(NCCC1=CCCCC1)C1CCCCC1	99.3
C=CCOc1cccc(CNc2cccc(C(=O)O)c2)c1	87.3
O=c1c2c(nc3nc[nH]n13)CCC2	98.2
CCN(C(=O)c1ccc(Cl)cc1)c1ccccc1C	100.8
CC(Sc1ccc2nnc(-c3cccnc3)n2n1)C(=O)O (configuration not stated)	100.0
O=C(COc1ccc(Br)cc1)NC1CC1	101.7
O=C(COc1ccc(Cl)cc1)Nc1nonc1NC(=O)COc1ccc(Cl)cc1	96.6
CCN1CCN(C(=O)CCSc2ccc(C)cc2)CC1	84.7
COc1ccc(N2CC(NC(=O)N3C(C)CCCC3C)CC2=O)cc1 (configuration not stated)	95.0
CC1=CC(=C2C(=O)NC(=S)NC2=O)C=C(C(F)(F)F)O1	101.8
COc1cc(S(=O)(=O)N2CCN=C2c2ccccc2)ccc1F	97.3
COc1cc(OC)c(OC)cc1CN(C)C1CCN(C)CC1	97.9
COC(=O)[C@]1(O)C[C@@H]2O[C@@]1(C)n1c3ccccc3c3c4c(c5c6ccccc6n2c5c31)C(=O)NC4	88.8
Cn1[nH]c(Nc2ccccc2Cl)c(N=Nc2ccccc2)c1=O	89.7
O=C(NC1CC1)c1cc2c(ccc3ccccc32)oc1=O	95.3
N#C/C(=C\Nc1ccccn1)C(=O)C1CC1	95.4
CC1CC(=O)Nc2ccccc2N1S(=O)(=O)c1cccc2nonc12 (configuration not stated)	91.4
Oc1c(C(c2ccccc2)N2CCCC2)sc2nc(-c3ccco3)nn12 (configuration not stated)	102.6
CNC(=O)COc1ccc(S(=O)(=O)Nc2ccccc2)cc1	95.8
Cc1ccc2c(c1)nc(NCCCO)n2C	87.7
O=C1/C(=C/c2ccccc2)Oc2c1ccc(O)c2CN1CCCC1	106.2
N/C(=N\C(=O)Nc1ccccc1)N1CCN(Cc2ccccc2)CC1	82.2
COc1ccc(NC(=O)CN(C)C)cc1	89.8

Overlap with the part before: 10 entries; new compounds follow.
SMILES	RVFV N-RNA FP
Cn1[nH]c(Nc2ccccc2Cl)c(N=Nc2ccccc2)c1=O	89.7
O=C(NC1CC1)c1cc2c(ccc3ccccc32)oc1=O	95.3
N#C/C(=C\Nc1ccccn1)C(=O)C1CC1	95.4
CC1CC(=O)Nc2ccccc2N1S(=O)(=O)c1cccc2nonc12 (configuration not stated)	91.4
Oc1c(C(c2ccccc2)N2CCCC2)sc2nc(-c3ccco3)nn12 (configuration not stated)	102.6
CNC(=O)COc1ccc(S(=O)(=O)Nc2ccccc2)cc1	95.8
Cc1ccc2c(c1)nc(NCCCO)n2C	87.7
O=C1/C(=C/c2ccccc2)Oc2c1ccc(O)c2CN1CCCC1	106.2
N/C(=N\C(=O)Nc1ccccc1)N1CCN(Cc2ccccc2)CC1	82.2
COc1ccc(NC(=O)CN(C)C)cc1	89.8
Cc1ccc(C(=O)NCC2CCCO2)cc1 (configuration not stated)	110.0
CCC(=O)Nc1ccc(C(=O)N/N=C/c2ccc(C#N)cc2)cc1	102.8
CCN1CCN(Cc2ccc(Cl)cc2)CC1	86.0
Cc1cc(C)c2c(N)c(C#N)sc2n1	88.8
CC1(C)CC(N2N=C(N)CC2=O)CCO1 (configuration not stated)	95.8
O=C(NCCN1CCOCC1)Nc1c[nH]c2ccccc12	100.5
COCCNC(=S)N1CCC(Cc2ccccc2)CC1	89.7
O=C(CCNS(=O)(=O)c1ccccc1)N1CCCC1	93.8
COC1OC(CO)C(O)CC1O (configuration not stated)	101.8
CC(C)Sc1nnc(NC(=O)CCc2ccccc2)s1	100.3
CC(C)c1nc2ccccc2n1C(=O)/C=C/C(=O)O	103.0
O=c1ccnc(SCc2cccc(Cl)c2)[nH]1	94.1
O=C1CCS(=O)(=O)c2ccccc21	96.3
O=S1(=O)CC(N2CCOCC2)c2ccccc21 (configuration not stated)	94.8
CCOC(=O)C1CCN(/C=C2/C(=O)NC(=O)N(c3ccc(OCC)cc3)C2=O)CC1	91.5
CCC(=O)n1nc(NCc2ccc(OC)c(OC)c2)nc1NCc1ccc(OC)c(OC)c1	96.1
CN1C(C(=O)Nc2ccccn2)=C(O)c2sccc2S1(=O)=O	99.9
Clc1ccc2nsnc2c1NC1=NCCN1	97.4&96.1&95.6
CCN(CC)CCNC(=O)c1ccc(NS(C)(=O)=O)cc1	92.4
COc1ccc(C(=O)/C=C2\NC(=O)CS2)cc1	96.5
N#Cc1ccsc1NC(=O)CCS(=O)(=O)c1ccccc1	93.5
CCC(=O)N1N=C(c2cccs2)CC1c1cccs1 (configuration not stated)	98.5
O=C(Nc1ccc2c(c1)OCO2)c1cc(-c2ccccc2)oc1C(F)(F)F	96.0
N#Cc1nccnc1Oc1cccc(C(F)(F)F)c1	95.8
CC(C)(C)C(=O)NC(=S)N1CCc2ccccc21	99.1
N[C@@H](CS(=O)O)C(=O)O	94.6
CCc1c(C)c2ccc(O)c(CN(C)C)c2oc1=O	92.3
C[C@]12CC[C@H](O)CC1=CC[C@@H]1[C@@H]2CC[C@@]2(C)[C@H]1CC[C@]2(C)O	98.9
CCOc1ccc(NC2=NC(C)(C)N=C(N)N2)cc1	89.4
O=C(c1cc(S(=O)(=O)N2CCCC2=O)c(Cl)cc1Cl)N1CCCCC1	98.3
CNC(=O)c1cnc2c(c(C)nn2-c2ccccc2)c1Cl	96.2
CN(Cc1ccccc1)S(=O)(=O)c1cc2c3c(c1)CCN3C(=O)CC2	94.7
O=C(NC(=S)NCc1cccs1)c1cccs1	105.2
O=C1NC(=O)c2cc(S(=O)(=O)N(CCO)CCO)cc3cccc1c23	91.3
COC(=O)C1=C(C)NC(C)=C(C(=O)OC(C)(C)CN(C)CCC(c2ccccc2)c2ccccc2)C1c1cccc([N+](=O)[O-])c1 (configuration not stated)	96.1
Fc1ccc(CN2CCN3CCCC3C2C2CCCCC2)cc1F (configuration not stated)	100.3
CC(NC(=S)NCCN1CCCCC1)c1ccccc1 (configuration not stated)	96.3
CC[N+](CC)(CC)CCOc1cccc(OCC[N+](CC)(CC)CC)c1OCC[N+](CC)(CC)CC	96.3&102.4
Cc1[nH]c2ccccc2c(=O)c1CNCc1ccccc1	91.2
c1ccc(NC2=Nc3ccccc3CC2)cc1	101.7
CCOC(=O)C(C)Sc1ncnc2c1nnn2Cc1ccc(Cl)cc1 (configuration not stated)	96.6
O=S1(=O)CC=C(S(=O)(=O)c2ccccc2)C1	92.1
OC(c1ccccc1)c1cccc(C(F)(F)F)c1 (configuration not stated)	101.1
CC(C)(C)c1ccc(OC(=O)CCC(=O)O)cc1	98.3
CCCCOC(=O)NS(=O)(=O)c1sc(CC(C)C)cc1-c1ccc(Cn2c(CC)nc3c(C)cc(C)nc32)cc1	98.5
CN1CCN(C(c2cccs2)N2CCN(C)CC2)CC1	96.9
CCOC(=O)c1ccc(NC(=O)Cn2cnc3c(nnn3-c3cccc(Cl)c3)c2=O)cc1	107.0
Cn1c(=O)c2c([nH]c(=O)n2C)n(C)c1=O	98.1
CCn1c(C)cc(/C=C2\SC(=Nc3cc(Cl)ccc3C)NC2=O)c1C	99.2
CCN(CC)S(=O)(=O)c1ccc(-c2cn3cccnc3n2)cc1	95.4
CC(C)(C)c1cc(CN2CCCC2)cc(C(C)(C)C)c1O	101.1
CCc1ccc(C(=O)Nc2ccc(N3CCCC3)cc2)cc1	98.8
O=C(Nc1c2c(nn1-c1ccccc1)CSC2)C1CC(=O)N(c2ccccc2)C1 (configuration not stated)	96.2
O=C1N(CN2CCCCC2)c2ccc(Br)cc2C12OCCO2	99.3
Cc1ccc(C(CNC(=O)CCc2ccccc2)N2CCN(C)CC2)cc1 (configuration not stated)	97.7
CNC(=O)c1ccsc1NC(=O)CN1C(=O)c2ccccc2C1=O	95.8
COc1ccc(-c2nc(N)ncc2-c2ccc3c(c2)OCCCO3)c(O)c1	99.1
CCc1ccc(C(=O)NC(CC(C)C)C(=O)O)cc1 (configuration not stated)	97.9
CC(NC(=O)Nc1ccc(S(N)(=O)=O)cc1)(C(F)(F)F)C(F)(F)F	95.4
CNC(=O)O/N=C(\N)Cc1csc2ccccc12	95.2

Additional compounds follow.
SMILES	RVFV N-RNA FP
CC1CN(S(=O)(=O)c2cn(C)c(=O)n(C)c2=O)CC(C)O1 (configuration not stated)	98.2
O=C(CSc1ccccc1)N1CCN(S(=O)(=O)c2cccs2)CC1	108.7
CC(C)NC(=S)NC(=O)c1cccs1	106.5
CCCSc1nnc(CSc2ncccn2)n1-c1ccc(F)cc1	93.0
CC(C)CC(=O)N1CCC2(CC1)CC(=O)c1ccccc1O2	92.4
CCCN1CCN(C(=O)Nc2ccc(C(=O)OCC)cc2)CC1	102.6
CCC(C)NS(=O)(=O)c1ccc(N)cc1 (configuration not stated)	95.7
COc1ccc(C(=S)N2CCNCC2)cc1	109.2
Cc1nnc(SCc2ccc3c(c2)OCO3)s1	94.4
COc1cccc2cc(-c3csc(C)n3)c(=O)oc12	92.9
Nc1nnc(SCCN2C(=O)c3ccccc3S2(=O)=O)s1	110.8
O=C(NNc1nc2cc3c(cc2s1)OCO3)c1ccccc1	83.4
Cc1ccc(C=Nc2cccc3nsnc23)c(O)c1	87.2
COc1ccccc1NC(=O)Nc1cc(C(C)(C)C)nn1C	99.4
